Bioassay records (PubChem BioAssay)
Rce1 inhib: yeast Ras-converting enzyme inhibition | Q03530 | yeast membranes, quenched prenylated peptide cleavage fluorescence | calls only | hit rate 0.27% among 290,000;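 active = fall in fluorescence gain of 50% or more versus controls, with final raw signal at or below 3038400; inconclusive = same 50% fall but final raw signal above 3038400; inactive = fall in fluorescence gain under 50%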;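 note: plate controls were neutral control wells for no effect and wells lacking membranes for full effect; tested at 10 µM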
Target sequence (Q03530 whole entry, looked up): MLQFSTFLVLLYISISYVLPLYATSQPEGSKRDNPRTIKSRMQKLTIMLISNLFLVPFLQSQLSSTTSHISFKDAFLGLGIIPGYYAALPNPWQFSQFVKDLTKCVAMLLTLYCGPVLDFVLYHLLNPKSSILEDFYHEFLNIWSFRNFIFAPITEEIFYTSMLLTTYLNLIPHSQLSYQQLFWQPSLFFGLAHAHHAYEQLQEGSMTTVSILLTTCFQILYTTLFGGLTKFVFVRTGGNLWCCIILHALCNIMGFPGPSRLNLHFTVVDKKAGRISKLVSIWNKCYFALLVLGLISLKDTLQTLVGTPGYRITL
Env fusion inh: inhibitors of HIV Env-mediated cell fusion. HeLa-JRFL Env/CEM21 cell fusion, luciferase. inhibition, % at 12.3 µM. hit rate 1.1% among 360,000. AID 651610;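 active = mean replicate inhibition score of at least 50 and every replicate individually at or above 50; inconclusive = only one of the two criteria met; inactive = mean below 50 and not all replicates reaching 50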;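 note: 0% = plate neutral controls and 100% = maraviroc near 300 nM; one replicate is shown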
eIF4H inh: inhibitors of RNA binding by human eIF4H; eIF4H fluorescence polarization binding assay; inhibition, % at 35 µM; hit rate 0.94% among 290,000;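 active = 50% or more with normal probe brightness, or confirmed in later tests; inconclusive = above 50% with abnormal brightness, or retests that disagree; inactive = below 50% or failed in later tests; about a fifth of its hits are not listed in these tables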;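 note: calls also rest on retests at 20 µM and on dose response follow-up; 0% = protein and probe with vehicle and 100% = probe without protein; strong numbers were not always called active; many hits fall short of the cut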
PABP FP inh: blocks human PABP binding to poly(A) RNA; AID 2014; fluorescence polarization; inhibition, % at 35 µM; hit rate 1% among 290,000;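 active = 50% or more with normal probe brightness, or confirmed in later tests; inconclusive = above 50% with abnormal brightness, or retests that disagree; inactive = below 50% or failed in later tests; about a fifth of its hits are not listed in these tables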;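 note: calls also rest on retests at 20 µM and on dose response follow-up; controls were probe without protein and protein plus probe with vehicle; some compounds called inactive have numbers as strong as hits; many hits fall short of the cut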
Target sequence (P11940 whole entry, looked up): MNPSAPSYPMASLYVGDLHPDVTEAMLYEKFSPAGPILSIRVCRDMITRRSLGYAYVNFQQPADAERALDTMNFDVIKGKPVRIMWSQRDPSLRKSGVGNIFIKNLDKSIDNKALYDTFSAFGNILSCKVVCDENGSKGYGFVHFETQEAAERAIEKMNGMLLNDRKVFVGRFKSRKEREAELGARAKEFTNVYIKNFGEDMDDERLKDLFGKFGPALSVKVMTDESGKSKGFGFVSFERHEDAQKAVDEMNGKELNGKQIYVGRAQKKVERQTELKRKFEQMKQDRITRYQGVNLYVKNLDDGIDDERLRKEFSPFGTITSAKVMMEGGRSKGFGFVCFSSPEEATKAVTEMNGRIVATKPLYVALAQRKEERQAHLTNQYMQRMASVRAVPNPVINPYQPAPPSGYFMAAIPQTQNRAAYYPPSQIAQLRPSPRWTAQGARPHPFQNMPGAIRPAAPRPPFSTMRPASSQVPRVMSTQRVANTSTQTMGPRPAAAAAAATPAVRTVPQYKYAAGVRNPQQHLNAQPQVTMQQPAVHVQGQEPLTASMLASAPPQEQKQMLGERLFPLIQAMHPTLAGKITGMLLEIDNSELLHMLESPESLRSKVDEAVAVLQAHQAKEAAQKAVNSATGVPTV
MT1-MMP act inh: inhibitors of human MT1-MMP activation; hit rate 0.061% among 360,000; AID 651647; GFP/RFP ratio change, % at 20 µM; HT1080 RFP-PRO-GFP cells, GFP/RFP ratio fluorescence, overnight; percent of plate control window, DMSO zero; P50281;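 active = GFP/RFP ratio change of at least 30% with cell ATP level not reduced by more than half and red fluorescence within 50% of control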; note: strong numbers were not always called active
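Material – HT1080 RFP-PRO-GFP cells · Control set – DMSO wells and RFP-L50D-GFP cells · Incubation – overnight cell settling, then overnight compound exposure, 37 °C, 5% CO2 · Compound dosing – single-point 20 µM compound, 1% DMSO · Read-out – GFP/RFP fluorescence ratio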
CSC inhib: blocks cancer stem cells; inhibition, % at 7.5 µM; cancer stem cell-like cells viability, luminescence; hit rate 1.1% among 300,000;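 active = mean at 75% or more and at least half the replicates too; inconclusive = mean and replicates disagree; tested in HMLE shEcad cells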;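 note: 0% = median of negative and 100% = median of positive control wells; the first replicate is given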
UUG fidelity: yeast start codon fidelity modulation; S. cerevisiae UUG-firefly luciferase reporter, luminescence/redox ratio; activity score, % at 18.7 µM; hit rate 0.13% among 350,000; AID 602363;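 active = replicate mean at a twofold rise or more, about +100% in these data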;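 note: firefly luciferase made from a UUG start codon reports start codon fidelity; reporter light over untreated wells divided by growth signal over untreated wells; some hits fall short of that in this replicate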
eIF4H inh retest: second read-out of eIF4H inh, no call of its own (marks repeat the call); inhibition, %; compound at 20 µM; confirmation average;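 mean of two retest wells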
PABP FP inh retest: also measured in PABP FP inh; calls as there; inhibition, %; compound at 20 µM; confirmation repeats;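 mean of two retest wells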
MT1-MMP act inh RFP: also measured in MT1-MMP act inh; calls as there; RFP signal change, %; measured here: RFP expression control read;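 0 = vehicle wells; hits needed this value within 50% of zero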
Starred values were filed as active, the others as inactive; i = inactive; ? = inconclusive; · = no result given.

SMILES	Rce1 inhib	Env fusion inh	eIF4H inh	PABP FP inh	MT1-MMP act inh	MT1-MMP act inh RFP	CSC inhib	UUG fidelity	others
NNC(=O)c1oc2ccccc2c1-n1cccc1	i	2	0	20	-2	5	-6	-42
CCCCCCC1CCC(C(=O)NC(CCSC)C(=O)NC(C(=O)OC)C(C)C)CC1 (stereo not drawn)	i	57*	0	11	-6	-3	0	-14
CC1CCN(c2ccccc2NC(=S)NC(=O)C(C)(C)C)CC1	i	19	-5	70	-8	-6	14	·	eIF4H inh retest=-5;PABP FP inh retest=-3
CCOCCCn1c(=S)[nH]c2cc(C(=O)N3CCC(C(N)=O)CC3)ccc2c1=O	i	-16	-4	-8	1	-3	-8	-10
COc1cccc(-c2ccccc2C2=CC(=O)CC(C)(C)C2=O)c1	·	-17	·	·	4	-1	·	1
O=[N+]([O-])c1ccc(C2NS(=O)(=O)N=C3CCCCCN32)cc1 (stereo not drawn)	i	0	0	-1	-2	3	-22	2
CC1=C(C)CC(C(=O)Nc2cccc([N+](=O)[O-])c2)C(C(=O)O)C1 (stereo not drawn)	i	-2	15	-7	14	4	17	-9
O=C(O)/C(=C\c1cccs1)c1ccc(F)cc1	i	-6	-3	-20	2	8	0	-13
Cc1ccc(S(=O)(=O)N2CCN(c3ncccn3)CC2)cc1C	i	7	·	·	5	4	-15	-27
CC(=O)C1C(c2ccccc2)c2c(n[nH]c2C)CC1(C)O (stereo not drawn)	i	22	7	-12	6	5	6	-21
O=C1/C(=C/c2ccncc2)SC(=S)N1C1CCS(=O)(=O)C1 (stereo not drawn)	i	4	8	18	3	4	20	-13
COc1cccc(Oc2ccc3nnc(C(F)(F)F)n3n2)c1	i	-34	-7	-3	-2	-1	-3	·
Cc1cccc(C(=O)NNc2ncnc3c2cnn3C)c1	i	10	-7	-6	5	4	6	·
COc1ccc(NC(=O)CSc2ccccc2)c(OC)c1	i	·	-6	6	0	0	-6	-12
Cc1cccc(/C=N/NC(=O)c2ccc(F)cc2)n1	i	9	3	10	2	4	-2	-6
CC(/C=C/C1(O)C(C)CC(O)CC1(C)C)OC1OC(CO)C(O)C(O)C1O (stereo not drawn)	i	·	6	2	-4	2	-8	-16
O=c1c2ccccc2c2ccccc2c(=O)n1Nc1ccccc1	·	-13	·	·	3	3	·	-7
CC(=O)Nc1ccc(C(=O)N/C(=C/c2ccccc2)C(=O)NCc2ccco2)cc1	·	-42	-6	8	-1	3	-12	-19
Cc1cccc(NC(=O)CCS(=O)(=O)c2cc3c(cc2Cl)NC(=O)CO3)c1	i	-9	1	-5	0	0	-14	-18
CCC(C)c1ccc(NC(=S)NCc2ccccc2OC)cc1 (stereo not drawn)	i	-1	4	-8	0	-3	·	·
Cc1noc(C)c1S(=O)(=O)N1CCC(C(=O)Nc2ccccn2)CC1	i	-23	-10	-5	2	7	-14	-10
CCn1c(=O)c2cc(C(=O)NC(C)C)sc2c2ccccc21	i	-6	-10	4	17	13	0	-1
O=C(O)CCN1C(=O)c2ccccc2C1=O	i	12	-8	-3	1	6	-15	-18
CCOc1ncccc1C(=O)Nc1cccc(S(=O)(=O)N2CCCCC2)c1	·	42	·	·	2	-2	6	-10
O=C(CC1NCCNC1=O)NC1Cc2ccccc2C1 (stereo not drawn)	i	-6	-1	-6	1	3	4	-9
Cc1ccc(C(=O)COc2cc(C)nc3nncn23)cc1	i	6	-5	10	0	2	-15	·
CCOc1ccc(S(=O)(=O)NCC(=O)NC2CCCCC2)cc1	·	·	·	·	-4	-2	-4	-19
O=C(c1noc2c1CCCC2)N1CCCC(N2CCN(c3ccccc3F)CC2)C1 (stereo not drawn)	i	·	-17	0	2	3	17	11
COc1ccc(NC(=O)CSc2nnc(N)s2)c([N+](=O)[O-])c1	i	-5	-9	0	-1	0	-14	·
O=S(=O)(NC1CCCC1)c1cc(F)ccc1F	i	-11	6	4	·	·	-9	-6
CC(C)CC(=O)Nc1c2c(nn1-c1ccc(F)cc1)CSC2	i	-22	4	-1	2	4	-12	-16
Cn1c(Cl)nc2c1c(=O)n(Cc1cccc(Br)c1)c(=O)n2C	i	28	-5	3	-3	-5	·	2
Cn1cc(-c2csc(C(O)c3ccc(F)cc3)n2)cn1 (stereo not drawn)	·	-5	·	·	6	1	·	-12
CCc1ccc(-c2nc(CN3CCC(C(=O)NCCc4ccc(OC)c(OC)c4)CC3)c(C)o2)cc1	i	68*	6	-7	2	-5	0	-7
CCCN1CCC(NC(=O)Nc2ccc(OC)c(OC)c2)CC1	i	-3	3	-4	5	-1	-17	34
COc1ccccc1C1=NN(C(=S)Nc2ccccc2)C(c2ccco2)C1 (stereo not drawn)	i	·	0	2	-6	-3	32	-8
COC(=O)c1cc(OC)c(OC)cc1-n1cnc2cc(OC)c(OC)cc2c1=O	i	-32	-12	7	4	3	1	-8
Cc1ccc(-c2ccc([C@H]3[C@@H]4C=CCC[C@@]4(C)C(=O)N3Cc3ccccc3)c(F)c2)cc1	i	11	-7	3	-3	-11	96*	-18
Cc1ccc(SCC(=O)N=C2NC(=O)CS2)cc1	i	-7	-1	-6	-13	6	-3	-16
CC1CC(C)CN(C(=O)c2ccc(S(=O)(=O)N3CC(C)CC(C)C3)cc2)C1 (stereo not drawn)	·	7	3	15	-9	-8	-7	-4
C/C(=N\NC(=O)CNC(=O)c1ccc2c(c1)OCCO2)c1ccco1	i	-11	-3	-3	2	-2	3	·
CCN(c1cccc(C(F)(F)F)c1)S(=O)(=O)c1ccc2c(c1)CCN2C(C)=O	i	·	-6	6	-11	-17	-3	-18
CC(O)CCc1ccc(O)cc1 (stereo not drawn)	i	-4	-1	-8	2	2	-10	·
Cc1ccc(S(=O)(=O)c2c[nH]c3cc4c(cc3c2=O)OCO4)cc1	i	-3	0	14	·	·	14	·
O=C(O)CCC(=O)N1CCC[C@H]1C(=O)O	i	42	2	1	0	3	-12	-2
Cc1nn(C)cc1/C=N/NC(=S)Nc1ccccc1	i	-138	-2	-8	4	3	-12	-32
O=C(O)c1ccc(-c2ccc(/C=C3\NC(=O)N(Cc4ccc(Cl)cc4)C3=O)o2)cc1	·	8	73*	51*	-4	-5	·	-13
COCCN(C(=O)Nc1ccc(OC)cc1OC)C1CCN(C(C)=O)CC1	i	·	-10	-2	-1	3	-9	-12
COc1cccc(-n2c(SCC(=O)OC(C)C)nnc2-c2cccnc2)c1	i	·	-3	-5	7	6	-15	·
COC1=CC(=O)OC(C)(c2ccccc2)C1 (stereo not drawn)	·	0	·	·	2	4	·	-8
COc1ccc(/C=C/C(=O)c2ccccc2)cc1Cn1nnc2ccccc21	i	-13	-9	14	-16	-11	?	·
COC(=O)Cn1c(=O)oc2ccc(C)cc21	i	-1	-3	-5	-1	-2	-3	·
Fc1ccc(Nc2nc(Oc3ccccc3F)nc(N3CCCC3)n2)cc1	i	-12	3	5	-9	-13	0	-2
CCOC(=O)[C@H]1[C@H]2COc3cc(OC)ccc3[C@@H]2N2C(=O)CN(Cc3ccc(C)cc3)C(=O)[C@@]12C	·	3	·	·	-2	4	6	-9
CCSc1nn2c(=O)c3ccccc3nc2s1	i	·	2	4	1	1	·	-23
C/C(Cc1ccccc1)=N\NC(=O)CNC(=O)c1ccc(Cl)cc1	i	-6	-11	8	3	0	-6	-8
CCOC(=O)c1sc(N(Cc2ccccc2)C(=O)COC(=O)c2ccc(O)cc2)nc1C	i	-10	-8	-5	-6	-5	-3	9
COc1ccc(-c2ccc(=O)n(Cc3cccc(Cl)c3)n2)cc1	i	-23	-7	1	·	·	19	12
CCCCC(CC)C(=O)Nc1cc(C(=O)NCCC)ccc1N1CCC2(CC1)CC(c1cccc(Br)c1)=NO2 (stereo not drawn)	i	27	·	·	7	0	5	1
O=C(COC(=O)/C=C/c1ccccc1)NCCNC(=O)COC(=O)/C=C/c1ccccc1	·	5	·	·	-3	2	-1	·

In the list so far, these contain a CF3 group:
SMILES	Rce1 inhib	Env fusion inh	eIF4H inh	PABP FP inh	MT1-MMP act inh	MT1-MMP act inh RFP	CSC inhib	UUG fidelity	others
COc1cccc(Oc2ccc3nnc(C(F)(F)F)n3n2)c1	i	-34	-7	-3	-2	-1	-3	·
CCN(c1cccc(C(F)(F)F)c1)S(=O)(=O)c1ccc2c(c1)CCN2C(C)=O	i	·	-6	6	-11	-17	-3	-18

Next compounds follow.
SMILES	Rce1 inhib	Env fusion inh	eIF4H inh	PABP FP inh	MT1-MMP act inh	MT1-MMP act inh RFP	CSC inhib	UUG fidelity	others
CCC(=O)N1CCc2cc(S(=O)(=O)N3CCN(c4ccccc4Cl)CC3)ccc21	i	-4	-5	0	1	-9	1	-13
CCc1nc2c(sc3nc4c(cc32)COC(C)(C)C4)c(=O)n1Cc1ccccc1	i	·	-5	5	5	-19	24	-20
O=S(=O)(c1cc(C(F)(F)F)ccc1Cl)N1CCN(c2ccccn2)CC1	i	16	2	-17	5	-6	3	6
FC(F)(F)c1ccccc1Cc1c(-c2ccccc2)nc2ccc(Br)cn12	·	-27	·	·	2	7	·	-23
CC1Nc2ncnc(N3CCOCC3)c2N(Cc2ccc(Cl)cc2)C1=O (stereo not drawn)	i	41	·	·	1	2	2	-11
O=C(NCc1ccco1)c1cc(-c2ccc3c(c2)OCO3)on1	i	-101	-8	4	0	-2	82*	-15
CC(=O)N1CCN(S(=O)(=O)c2cccc(C(=O)NNC(=O)COc3ccc(Cl)cc3C)c2)CC1	i	·	·	·	-1	-5	-12	-11
COC(=O)c1c(NC(=O)CCS(=O)(=O)c2ccccc2)sc2c1CCN(C)C2	i	·	-13	-18	-6	-1	-5	-2
O=C(NC(=S)Nc1ccc(Cl)cn1)C(c1ccccc1)c1ccccc1	i	·	-5	0	-7	-9	67	·
COc1ccc(OC)c(NC(=O)N2CCCC(C(=O)c3ccccc3OC)C2)c1 (stereo not drawn)	i	2	3	0	-1	-3	-2	-23
O=S1(=O)N=C2CCCCCN2C(c2ccccc2)N1 (stereo not drawn)	i	-2	-12	-7	0	0	-1	·
COc1cccc(-c2cc(C(=O)Nc3ccc(N(C)C(C)=O)cc3)c3cc(Br)ccc3n2)c1	i	16	·	·	-11	-11	32	-24
NS(=O)(=O)c1ccc(NC=C2C(=O)OC3(CCCCC3)OC2=O)cc1	i	-25	5	8	0	2	·	-4
Clc1ccc(CNC2CCCC2)cc1	i	·	-4	1	-1	2	·	-15
COc1cc([N+](=O)[O-])ccc1-c1ccc(/C=N/NC(N)=O)o1	i	-3	65	44*	-45	6	-2	-13	eIF4H inh retest=-15;PABP FP inh retest=66*
Cc1ccc(C(=O)CC2(O)C(=O)N(C)c3ccccc32)o1 (stereo not drawn)	i	-5	4	3	1	-4	0	-20
Cc1nc2ccccc2c(=O)n1CCc1ccccc1	i	-2	5	3	-5	2	-5	-13
O=C(C1CCC1)N1CCc2cc(S(=O)(=O)NCC3COc4ccccc4O3)ccc21 (stereo not drawn)	i	-6	-14	-12	1	3	1	-16
O=C(CCNC(=O)c1ccccc1)Oc1ccc([N+](=O)[O-])cc1	i	·	8	26	0	0	-9	-2
Cc1ccc(CSCC(=O)N(C)CC(=O)Nc2c(Cl)cccc2Cl)cc1	i	-4	·	·	-4	-2	-4	-11
O=C(NCCc1ccc(O)cc1)c1[nH]c(C(F)(F)F)nc1-c1ccccc1	·	6	·	·	0	0	·	-7
